Screening data deposited in PubChem BioAssay by National Center for Advancing Translational Sciences (NCATS).
PMP22 txn prim: modulators of PMP22 gene transcription in S16 Schwann cells; S16 Pmp22-F2sN Schwann cells (luciferase reporters placed in the Pmp22 gene), FLuc/NLuc coincidence luminescence, 24 h; Potency, µM (titrated, usually from 57.5 µM), inactives show at the top dose activity change, negative = inhibition, usual class: inhibitors; actives 2% (n = 43,000); AID 1508649; active = clear falling dose curves in both reporters; inconclusive = both reporters move, but less clearly or upward; inactive = either reporter flat; the % is the NLuc reporter signal; further: on the % scale 0 is the no-effect control and ±100 the full control effect; some results filed as inactive show a strong effect at the top dose
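Luminescent read-out of sequential FLuc and NLuc signals from a reporter embedded in the Pmp22 3' UTR of S16 Schwann cells, taken after 24 h compound exposure at 37C; compounds reducing both signals score as inhibitors of expression.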
HTT prom inh: HTT promoter inhibition; HEK293 HTT promoter firefly luciferase reporter (activity 0% = vehicle and -100% = no light), 24 h; Potency, µM (series often up to 57.5 µM), inactives show at the highest dose activity change, negative = inhibition, usual class: inhibitors; actives 0.93% (n = 48,000); AID 1508623; active means well fitted inhibition curve with a large enough effect; inconclusive means small, poorly fitted or top-dose-only effect; inactive means no such curve, though single readings can be large or run the other way; further: nearly all actives have a fitted effect of over 50% in size
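HEK293 luciferase promoter-reporter cells (2,500/well) plated 24 h, then compounds added at up to 57.5 uM final for 24 h at 37 °C. Firefly luminescence by Dual-Glo, normalized to vehicle (0%) and zero RLU (-100%).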
An asterisk follows results filed as active; ? = inconclusive; . = not tested or not shown; [ ] = remark or other dose. Potency means the concentration at half of the fitted maximal effect.

SMILES	PMP22 txn prim	HTT prom inh
Cc1ccc(CNC(=O)c2ccc(CN3CC(=O)N4CCCCC4C3=O)cc2)cc1 (centres undefined)	-9%	-19%
CCOc1ccc(Nc2cc(C)nc3nc(Cc4ccc(Cl)cc4)nn23)cc1	-29%	-21%
CCCCNc1ccc(-c2nc(-c3ccncc3)no2)cc1[N+](=O)[O-]	-7%	1%
Cc1cccc(CNC(=O)C2CCN(c3nn4cc(-c5ccc(F)cc5)nc4s3)CC2)c1	-7%	4%
O=C(NCCCN1CCN(c2ccc(F)cc2)CC1)Nc1ccc(Cl)cc1	?	-24%
Cc1ccnc(NC(c2cc(C)ccc2O)c2ccc3cccnc3c2O)c1 (centres undefined)	?	?
COc1ccc(-c2cc(C(=O)OCC(=O)c3cccc(OC)c3)c3cccc(Cl)c3n2)cc1	-4%	22%
CCCN(CCC)CCNC(=O)c1cc2c(=O)oc3ccc(C)cc3c2s1	?	-23%
CCOC(=O)c1cnn(-c2ccc(C(=O)Nc3ccc(OC(F)(F)F)cc3)cc2)c1N	-4%	-15%
COC(=O)c1ccc2oc(=O)c(S(=O)(=O)c3ccc(C)cc3)cc2c1	7%	-14%
Cn1c(=O)oc2cc(S(=O)(=O)NC(Cc3ccccc3)C(=O)NCc3ccccc3Cl)ccc21 (centres undefined)	-14%	-4%
CCOC(=O)c1cccc(NC(=O)CCNS(=O)(=O)c2cccc3nonc23)c1	-5%	-14%
COc1ccc(Br)cc1CNC(=O)c1ccc2c(c1)nc1n2CCCCC1	-3%	-16%
Cc1ccc(CNS(=O)(=O)c2ccc3c(c2)CC(C)N3C(=O)C2CCC2)cc1 (centres undefined)	?	?
Cc1cc(=O)n2nc(N3CCC(C(=O)Nc4ccc(Br)cc4F)CC3)sc2n1	-17%	-13%
COc1cc(NC(=O)CCn2c(-c3ccccc3)cc(C(C)=O)c2C)cc(OC)c1	1%	?
O=C(CSc1nc2ccccc2nc1Cc1ccc(Cl)cc1)N1CCCc2ccccc21	?	10%
Cc1ccc(CNC(=O)c2nn(C)c3c2CS(=O)(=O)c2ccccc2-3)cc1	-13%	-24%
CC1N=C2c3ccccc3N=C(SCC(=O)NCCc3ccc(Cl)cc3)N2C1=O (centres undefined)	26%	-6%
CCN(CCN(C)C)C(=O)C1CCN(S(=O)(=O)c2c(C)noc2/C=C/c2ccccc2F)CC1	?	-23%
Cc1ccc(NC(=O)c2oc3ccc(S(=O)(=O)N(C)C4CCCCC4)cc3c2C)cc1Cl	-11%	-12%
NC(=O)c1cc(S(=O)(=O)N2CCCCC2)cs1	-8%	-9%
COCCCn1c(=O)c2sccc2n2c(CCCC(=O)NCc3ccc(F)cc3)nnc12	-17%	-15%
CCOc1ccc(CCNS(=O)(=O)c2cc(Br)cc3c2N(C(C)=O)CC3)cc1OCC	-13%	-10%
Cc1cccc(NC(=O)N2CCC(CN3CCCCCC3)CC2)c1C	11%	-12%
(continued)
SMILES	PMP22 txn prim	HTT prom inh
CCOC(=O)c1ccccc1NS(=O)(=O)c1ccc(N2CCCCS2(=O)=O)cc1	?	?
CC(Nc1oc(-c2ccc(COc3ccc(Cl)cc3)o2)nc1C#N)c1ccccc1 (centres undefined)	-74%	-17%
CCc1ccc(Oc2c(C(F)(F)F)oc3c(CN4CCN(C)CC4)c(O)ccc3c2=O)cc1	4%	-21%
CC(=O)Nc1nonc1-c1nnc(SCc2ccc(C)cc2)n1C	-16%	-1%
N#Cc1ccccc1Cn1c(=O)n(Cc2ccc(C(=O)NC3CCN(Cc4ccccc4)CC3)cc2)c(=O)c2ccccc21	?	-9%
CCN(CCCNC(=O)c1cc2c(=O)n(CC)c3ccccc3c2s1)c1cccc(C)c1	?	13%
Nc1nnc2c(n1)[nH]c1ccccc12	-1%	2%
O=C(c1ccc2c(c1)N(Cc1cccc(Cl)c1)C(=O)c1ccccc1S2=O)N1CCC(Cc2ccccc2)CC1 (centres undefined)	-15%	?
CCC1CCCCN1CCCNC(=O)c1cn(CC)c2ccc(S(=O)(=O)N(C)C3CCCCC3)cc2c1=O (centres undefined)	?	-7%
Cc1cccc(-c2nnc(SCC(=O)Nc3ccc(C)c(C)c3)o2)c1	-25%	3%
COc1ccc(C(=O)c2cn(Cc3ccc(F)cc3)c3c(F)cc(F)cc3c2=O)cc1	?	?
Cc1ccc(S(=O)(=O)n2nc(C)c(S(=O)(=O)N3CCCCC3)c2C)cc1	5%	-1%
Cc1ccccc1Cn1nnc2c(=O)[nH]c(C3CCCN(C(=O)c4ccc(C(C)(C)C)cc4)C3)nc21 (centres undefined)	?	?
Cc1ccc(C)c(NC(=O)c2nc(S(=O)(=O)Cc3ccc(F)cc3)ncc2Cl)c1	7.6µM*	?
O=C(CSc1nc2ccccc2nc1Cc1ccc(Cl)cc1)N1CCc2ccccc21	-29%	2%
CC(=O)OCC(=O)[C@@]1(O)[C@H](C)C[C@H]2[C@@H]3C=C(C)C4=Cc5c(cnn5-c5ccccc5)C[C@]4(C)[C@@H]3[C@@H](O)C[C@@]21C	.	-20%
COc1cccc(NC(=O)c2oc3ccccc3c2NC(=O)Cc2cccc(C)c2)c1	-18%	-22%
COc1ccc(CCCc2nnc(SCC(=O)Nc3ccc(Cl)cc3)o2)cc1	-25%	-7%[11.5 µM]
CCCCOc1ccc(C(=O)CCN2CCCCC2)cc1	.	10%
Cc1ccc(C)c(NC(=O)CSc2nnc(C)n3c2cc2occc23)c1	?	1%
O=C(Nc1cccnc1)N1CCC(Cc2cccc(Oc3ccc(C(F)(F)F)cn3)c2)CC1	.	?
Cc1ccc(C)c(NC(=O)Cn2ccn(-c3ccc(F)cc3)c(=O)c2=O)c1	-6%	-15%
COc1cc(C2CC(=O)N(c3ccc(C)c(Cl)c3)C3=C2C(=O)OC3)cc(OC)c1OC (centres undefined)	-2%	-8%
Cc1cccc(N2C(=O)CC(c3ccc(F)cc3)C3=C2COC3=O)c1 (centres undefined)	5%	0%
O=C(CSC1=Nc2ccccc2N=C(c2ccc(F)cc2)C1)NCc1ccccc1	-45%	-14%

Reformatted: results already given.
CC(=O)Nc1nonc1-c1nnc(SCc2ccc(C)cc2)n1C
- PMP22 txn prim: -16%
- HTT prom inh: -1%

N#Cc1ccccc1Cn1c(=O)n(Cc2ccc(C(=O)NC3CCN(Cc4ccccc4)CC3)cc2)c(=O)c2ccccc21
- PMP22 txn prim: ?
- HTT prom inh: -9%

CCN(CCCNC(=O)c1cc2c(=O)n(CC)c3ccccc3c2s1)c1cccc(C)c1
- PMP22 txn prim: ?
- HTT prom inh: 13%

Nc1nnc2c(n1)[nH]c1ccccc12
- PMP22 txn prim: -1%
- HTT prom inh: 2%

Continued.
SMILES	PMP22 txn prim	HTT prom inh
O=C(Cn1c(=O)n(Cc2ccccc2)c(=O)c2sc3ccccc3c21)Nc1ccc(F)cc1	14µM*	-14%
Cc1cccc(C(=O)OCc2cc(=O)n3nc(-c4cccs4)sc3n2)c1	-6%	-11%
CCOC(=O)c1sc2ccccc2c1S(=O)(=O)Nc1cccc(C(F)(F)F)c1	3%	0%
COc1ccc(-n2nc(C(=O)N3CCCC(C)C3)c3c4ccccc4n(C)c3c2=O)cc1Cl (centres undefined)	?	3%
CC(=O)Nc1c(C)nn(-c2ccccc2)c1N1CCC(C(=O)NCc2cccc(Cl)c2)CC1	-10%	-17%
CCOC(=O)c1[nH]c2ccccc2c1NC(=O)c1cc(OCC)c(OCC)c(OCC)c1	?	-1%
Cc1ccc(-c2noc(C(C)NC(=O)c3ccco3)n2)cc1 (centres undefined)	-17%	?
Cc1cccc(-n2c(=O)c3c(c4cc(C)ccc4n3C)n(CC(=O)NCC3CCCO3)c2=O)c1 (centres undefined)	2%	-12%
Cc1cccc(CNC(=O)c2ccc(NC(=O)N3CCSc4ccccc43)cc2)c1	25%	-20%
Cc1ccc(C)c(N2CCN(S(=O)(=O)c3cc(-c4cc(C)no4)ccc3C)CC2)c1	-23%	?
O=C(CN1C(=O)COc2ccc(S(=O)(=O)N3CCCCCC3)cc21)N1CCN(c2ccccc2F)CC1	?	-16%
COc1cc(NC(=O)CCc2nc(-c3cccs3)no2)cc(OC)c1OC	?	?
COc1ccccc1CNC(=O)C(C)n1ccc2cc(S(=O)(=O)N3CCCC3)ccc21 (centres undefined)	-8%	-24%
COc1ccccc1NC(=O)c1sc2cccc(Cl)c2c1Cl	16%	6%
COc1ccccc1OCc1nc(C#N)c(NCc2ccc(C)cc2)o1	-11%	-17%
CCCC12CN3CC(C)(CN(C1)C3c1ccc(OCc3ccccc3)cc1)C2=O (centres undefined)	6%	-14%
COc1ccc(NC(=O)c2c(NCc3cccs3)sc3c2CCCC3)cc1	?	?
O=C(c1ccc(F)cc1)c1cn(Cc2ccccc2)c2cc3c(cc2c1=O)OCO3	-15%	11%
O=C(Nc1sc2c(c1C(=O)Nc1ccccc1Cl)CCCC2)c1ccccc1F	7%	8%
COc1ccc(S(=O)(=O)N(CC(=O)N2CCC(C)CC2)c2ccc(C)cc2)cc1	-1%	-20%
Cc1nc2cc(-c3cccc(F)c3)nn2c(C)c1CCC(=O)NC(C)c1ccccc1 (centres undefined)	?	?
CCOc1ccc(CNC(=O)c2cnc(SC)nc2C)cc1	?	?
O=C(Nc1ccc(O)c(-c2nc3ccccc3o2)c1)c1ccc(-c2cccc(Cl)c2)o1	-17%	-3%
Cc1ccc2onc(CC(=O)N3CCN(c4ccccc4)CC3)c2c1	-4%	-14%
O=C(CCS(=O)(=O)c1nc(-c2ccc3c(c2)OCO3)cc(C(F)(F)F)n1)Nc1ccc(F)cc1F	?	5%
Further records follow:
SMILES	PMP22 txn prim	HTT prom inh
Cc1ccc(-c2nn(CC(=O)NC3CCCCC3)c3c2cnc2ccc(F)cc23)cc1C	-15%	-11%
CCc1ccccc1NC(=O)N1CCc2cc(OC)c(OC)cc2C1CC(=O)OC (centres undefined)	?	-20%
CCCS(=O)(=O)c1c(S(=O)(=O)CCC)c2cc(C(C)(C)C)ccn2c1C(=O)c1ccc(OC)c(OC)c1	-4%	-22%
CCOc1ccc(CNC(=O)c2cnc3sc(N(CC)CC)nn3c2=O)cc1	?	-3%
Cc1ccc2occ(-c3cc(-c4ccccc4)nc4c3COc3ccccc3-4)c(=O)c2c1	-4%	-7%
Cc1ccc(C(C)(C)C)c(OCC(=O)NCCc2nc3ccccc3[nH]2)c1	-2%	4%
CCOc1ccccc1N1CC(c2nc3ccccc3n2CCOc2ccccc2OC)CC1=O (centres undefined)	?	?
CCOc1ccc(C2c3c(-c4ccccc4O)n[nH]c3C(=O)N2Cc2ccncc2)cc1 (centres undefined)	-19%	?
CC(=O)c1c(C)oc2c1cc(NS(=O)(=O)c1c(C)cc(C)cc1C)c1ccccc12	4%	-9%
Cn1cc(C=CC(=O)c2cccc(F)c2)cc1C=CC(=O)NO	.	33%[activator]
CCCN(CCC)CCCNC(=O)C1CCCN(Cc2nc(-c3ccc(Cl)cc3)oc2C)C1 (centres undefined)	?	-21%

An excerpt of these results, with two lines to a compound:
Values in the order – PMP22 txn prim | HTT prom inh
Cc1ccc2occ(-c3cc(-c4ccccc4)nc4c3COc3ccccc3-4)c(=O)c2c1
  -4% | -7%
Cc1ccc(C(C)(C)C)c(OCC(=O)NCCc2nc3ccccc3[nH]2)c1
  -2% | 4%
CCOc1ccc(CNC(=O)c2cnc3sc(N(CC)CC)nn3c2=O)cc1
  ? | -3%
Cn1cc(C=CC(=O)c2cccc(F)c2)cc1C=CC(=O)NO
  . | 33%[activator]
CCOc1ccc(C2c3c(-c4ccccc4O)n[nH]c3C(=O)N2Cc2ccncc2)cc1 (centres undefined)
  -19% | ?

Structural class, the entries above containing two or more sulfur atoms
SMILES	PMP22 txn prim	HTT prom inh
NC(=O)c1cc(S(=O)(=O)N2CCCCC2)cs1	-8%	-9%
CCOC(=O)c1ccccc1NS(=O)(=O)c1ccc(N2CCCCS2(=O)=O)cc1	?	?
Cc1ccc(S(=O)(=O)n2nc(C)c(S(=O)(=O)N3CCCCC3)c2C)cc1	5%	-1%
Cc1cccc(C(=O)OCc2cc(=O)n3nc(-c4cccs4)sc3n2)c1	-6%	-11%
CCOC(=O)c1sc2ccccc2c1S(=O)(=O)Nc1cccc(C(F)(F)F)c1	3%	0%
COc1ccc(NC(=O)c2c(NCc3cccs3)sc3c2CCCC3)cc1	?	?
CCCS(=O)(=O)c1c(S(=O)(=O)CCC)c2cc(C(C)(C)C)ccn2c1C(=O)c1ccc(OC)c(OC)c1	-4%	-22%
